# Screening data: PubChem BioAssay, several laboratories
# E coli growth: E. coli growth inhibition; Escherichia coli growth, OD600, 23 h; hits give low values; OD600 absorbance (concentration not given with the values); 330,000 tested, 0.21% active; AID 1053175;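 active = OD600 absorbance below the run mean of sample wells minus 3.6 SD, in any replicate, cut at about 0.56 in these data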;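 note: stock transfer was 300 nL into about 60 µL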
# Ecoli rRNA inh: inhibitors of bacterial rRNA selective over humanized ribosomes. E. coli WT GFP vs humanized-ribosome RFP mutants, fluorescence, 24 h; hits give low values; DMSO median 0, no signal -100. GFP signal change (wild-type ribosome), % (concentration not given with the values). 350,000 tested, 1.6% active;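 active = significant combined selectivity score with lowered wild-type GFP, culture density cut under 30%, mutant RFP and density less affected; inactive = any of these conditions unmet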; note: one replicate is shown; some compounds called inactive have numbers as strong as hits
# AF4-AF9 inh: inhibitors of human MLL-AF4/AF9 interaction; P42568; AlphaScreen, biotin-AF4 peptide binding to FLAG-AF9; inhibition, % at 10 µM; 350,000 tested, 0.47% active; AID 651704;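 active = every replicate reaching a set inhibition limit, whatever the replicate mean, cut at about 25% in these data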;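 note: 0% = plate neutral control median and 100% = total signal loss; the record names both 10 and 1 µM as test concentration; the first replicate is given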
# Target sequence (P42568 whole entry, looked up): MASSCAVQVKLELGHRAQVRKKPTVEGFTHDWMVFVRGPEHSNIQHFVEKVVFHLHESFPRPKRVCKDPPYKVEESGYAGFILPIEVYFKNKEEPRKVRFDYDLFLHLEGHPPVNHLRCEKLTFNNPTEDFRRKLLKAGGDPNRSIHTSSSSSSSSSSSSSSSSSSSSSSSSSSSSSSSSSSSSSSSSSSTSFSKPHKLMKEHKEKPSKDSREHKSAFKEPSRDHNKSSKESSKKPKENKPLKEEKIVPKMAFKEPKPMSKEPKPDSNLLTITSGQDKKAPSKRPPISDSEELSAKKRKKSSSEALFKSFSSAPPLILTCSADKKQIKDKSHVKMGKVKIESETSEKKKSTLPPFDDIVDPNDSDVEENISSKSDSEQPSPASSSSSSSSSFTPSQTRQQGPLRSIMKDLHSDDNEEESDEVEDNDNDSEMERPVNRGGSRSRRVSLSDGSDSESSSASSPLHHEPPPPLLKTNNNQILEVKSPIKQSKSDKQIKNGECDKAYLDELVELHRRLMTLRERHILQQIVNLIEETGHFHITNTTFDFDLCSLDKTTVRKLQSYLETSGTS
# Beta cell apopt: beta cell apoptosis inhibition | INS-1E cytokine-induced death, ATP luminescence, 48 h; percent of positive-control rescue, neutral wells zero | protection from apoptosis, % (concentration not given with the values) | 300,000 tested, 0.8% active;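 active = all replicates at 75% or more, or half of them and the mean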;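 note: 0% = cytokine-treated negative control wells and 100% = positive control rescue; higher means more ATP so stronger rescue from cytokine killing; wells of about 40 µL received 100 nL stock; the first replicate is given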
# UCH37 DUB inh: human UCH37 deubiquitinating enzyme inhibition; Q9Y5K5; purified proteasome/UCH37, Ub-AMC cleavage fluorescence; inhibition, % (no concentration beside the values); 330,000 tested, 0.33% active;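 active = mean of two replicates above 20%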;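 note: 0% = compound-free wells with enzyme and 100% = wells lacking proteasome; stock transfer was 100 nL into about 20 µL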
# Target sequence (Q9Y5K5 whole entry, looked up): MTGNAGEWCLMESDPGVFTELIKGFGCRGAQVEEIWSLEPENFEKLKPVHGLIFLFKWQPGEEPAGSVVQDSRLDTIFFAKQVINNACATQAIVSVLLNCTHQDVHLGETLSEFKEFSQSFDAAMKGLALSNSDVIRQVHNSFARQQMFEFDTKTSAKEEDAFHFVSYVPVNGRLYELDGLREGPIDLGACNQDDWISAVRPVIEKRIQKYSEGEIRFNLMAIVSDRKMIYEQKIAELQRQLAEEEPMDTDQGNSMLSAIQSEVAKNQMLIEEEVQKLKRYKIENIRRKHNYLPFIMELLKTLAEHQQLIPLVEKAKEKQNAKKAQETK
#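 Material: human UCH37 enzyme supplied as purified proteasome complex. Measure: % inhibition of Ub-AMC cleavage fluorescence. Medium: pH 7.4 Tris-HCl (50 mM) with ovalbumin, ATP-MgCl2, DTT. Times: 30 min preincubation with enzyme, 25 min cleavage at room temperature. Detection: AMC fluorescence intensity at 355/460 nm.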
# FGF22 binding: FGF22 (human) thermal shift binding; recombinant FGF22 thermal shift, SYPRO orange fluorescence; percent of sucrose octasulfate shift, DMSO zero; 340,000 tested, 1.5% active; Q9HCT0; AID 651658; calls only at 9.99 µM;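 active = melting point raised past a set limit in the mean and every replicate; three in four hits are not shown here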
# Target sequence (Q9HCT0 whole entry, looked up): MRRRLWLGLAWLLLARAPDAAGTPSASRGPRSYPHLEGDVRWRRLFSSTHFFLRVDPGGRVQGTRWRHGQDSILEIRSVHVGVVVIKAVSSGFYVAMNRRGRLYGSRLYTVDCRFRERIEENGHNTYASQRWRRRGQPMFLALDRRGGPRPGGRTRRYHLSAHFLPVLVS
# T cruzi inh: T. cruzi replication inhibition | AID 1885 | inhibition, % (no concentration beside the values) | 300,000 tested, 1.4% active | T. cruzi beta-gal in NIH3T3, luminescence, 90 h;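 active = mean inhibition across valid replicates above about 55%, limit read from the data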;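 note: signal also drops with host cell toxicity which is not excluded here; 0% = plate median of DMSO wells and 100% = zero luminescence signal; higher percent means less beta-gal luminescence so fewer parasites; stock transfer was 50 nL into about 50 µL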
# A1 inh: inhibitors of the anti-apoptotic protein A1, read as caspase activation; MEF A1-2A-BIM cells, Caspase-Glo 3/7 luminescence, 3 h; percent of clofoctol response, vehicle zero; caspase activation, % (concentration not given with the values); 330,000 tested, 0.066% active; AID 2462;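 active = over half of replicate activation scores above 10%, or exactly half above 10 with the replicate mean above 10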;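 note: wells of about 30 µL received 50 nL stock; many hits fall short of the cut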
# Ecoli rRNA inh OD600: further read-out of Ecoli rRNA inh, marked with its call; OD600 change, %; measured here: OD600 growth;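 optical density of the mix in the first replicate; 0 = DMSO median and -100 = no signal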
# Ecoli rRNA inh RFP: recorded beside Ecoli rRNA inh, whose call it bears; RFP signal change, %; measured here: RFP humanized mutant strains;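 first replicate; 0 = DMSO median and -100 = no signal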
# Starred values were filed as active, the others as inactive; i = inactive; · = no result given. Not all compounds are listed. The share of hits here may be higher or lower than overall.
SMILES,E coli growth,Ecoli rRNA inh,Ecoli rRNA inh OD600,Ecoli rRNA inh RFP,AF4-AF9 inh,Beta cell apopt,UCH37 DUB inh,FGF22 binding,T cruzi inh,A1 inh
CCC(C)Sc1cccc(-c2nc3ccccn3c2NCc2ccccc2)c1 (centres undefined),0.68,-20,-29,-8.6,11,21,-165,i,·,-0.5
COc1ccc(/C=N/NC(=O)c2ccn[nH]2)cc1Cn1cc([N+](=O)[O-])cn1,·,4,-7,-0.7,1.6,-4,·,i,-5,-1.1
CC(=O)c1sc(NC(=O)CN2C(=O)CCC2=O)nc1C,0.76,·,·,·,·,4,11,·,-8,-0.5
CCCCNC(=O)C1CC(=O)N(CCc2ccccc2)C1 (centres undefined),0.68,12,4,0.8,-4.1,3,1.2,i,-9,-0.1
O=C(Nc1ccccc1)Nc1c(F)cccc1F,0.68,10,14,-5.2,-3.2,3,4.9,i,12,2.3
COc1ccc(Nc2nnc(SCC(=O)NC3CC3)s2)cc1,0.7,3,12,-2.5,-2.6,-1,3.1,i,·,0.8
COc1ccccc1CC(=O)Nc1cc(S(=O)(=O)N2CCOCC2)ccc1N1CCOCC1,0.72,-11,-11,12,1.9,1,-1.2,i,·,-0.3
CCN(C(=O)COC(=O)/C=C/c1nc2ccccc2s1)c1c(N)n(Cc2ccccc2)c(=O)[nH]c1=O,0.63,3,-2,1.6,-2.5,·,-2.3,i,·,·
CS(=O)(=O)N(CC(=O)N1CCN(c2ccc(F)cc2)CC1)c1ccc(F)c(Cl)c1,0.66,·,·,·,·,-3,2.3,·,8,-0.2
Cn1c(SCC(=O)N2CCN(c3ccccc3)CC2)nnc1-c1ccccc1,0.72,·,·,·,·,-1,3.4,·,9,0.6
Cc1[nH][nH]c(=O)c1C(c1cc(Br)ccc1O)c1c(C)[nH][nH]c1=O,0.66,6,18,-4.6,3.8,1,4.8,i,-6,0.8
Cc1cc2c(=O)n(NC(N)=O)c(C)nc2s1,0.79,·,·,·,·,1,2.2,·,·,0.7
O=C(Nc1cc(C(F)(F)F)ccc1Cl)c1ccncc1,0.66,-1,-3,-1.4,-1.9,-6,2.4,i,-20,-0.3
CC(C)n1c(C(F)(F)F)nc2cc(C(=O)N3CCOCC3)ccc21,0.68,4,2,-1.0,0.1,0,3.4,i,-13,0.7
COC(=O)c1ccc(COC(=O)c2nn(C)c(=O)c3ccccc23)cc1,0.66,5,6,-2.2,-2.2,5,2.9,i,1,-0.3

# 2 of the compounds above, tab-delimited.
molecule	E coli growth	Ecoli rRNA inh	Ecoli rRNA inh OD600	Ecoli rRNA inh RFP	AF4-AF9 inh	Beta cell apopt	UCH37 DUB inh	FGF22 binding	T cruzi inh	A1 inh
CCC(C)Sc1cccc(-c2nc3ccccn3c2NCc2ccccc2)c1 (centres undefined)	0.68	-20	-29	-8.6	11	21	-165	i	·	-0.5
COc1ccc(/C=N/NC(=O)c2ccn[nH]2)cc1Cn1cc([N+](=O)[O-])cn1	·	4	-7	-0.7	1.6	-4	·	i	-5	-1.1

# (continued)
SMILES,E coli growth,Ecoli rRNA inh,Ecoli rRNA inh OD600,Ecoli rRNA inh RFP,AF4-AF9 inh,Beta cell apopt,UCH37 DUB inh,FGF22 binding,T cruzi inh,A1 inh
Cc1ccc(NC(=O)C2CCN(S(=O)(=O)c3c(C)nn(C)c3C)CC2)c(Cl)c1,0.67,-1,0,-0.1,-2.6,9,1.3,i,-2,0.9
O=C(Cn1cc2c(n1)CCCCC2)NCCCN1CCOCC1,0.74,6,10,-1.8,-2.6,-6,4.9,i,0,-1.0
CCOc1ccccc1CN1CCN(CC2CC2)CC1CCO (centres undefined),0.7,6,4,-2.8,4.2,·,0.8,i,12,1.3
O=C(CNC(=O)c1ccc(=O)[nH]c1)Nc1ccc(F)c(F)c1,0.7,11,8,1.3,-1.4,-4,-0.5,i,-5,-0.4
COC(=O)c1cccc(N(CC(=O)NC2CCCC2)C(=O)CCC(=O)Nc2cc(C)on2)c1,0.68,4,17,-0.6,-2.5,-4,1.5,i,-1,0.7
CCN(CC)CCSc1nc(O)c(C(C)C)c(=O)[nH]1,0.68,·,·,·,·,1,2.6,·,1,1.8
Cc1occc1C(=O)N1CCN(S(=O)(=O)c2ccccc2)CC1,0.71,16,13,0.9,-1.1,-1,3.2,i,-7,1.0
Cc1oc2cc(OCC(=O)O)ccc2c(=O)c1Oc1ccccc1,0.68,1,-2,-2.6,3.8,-5,1.5,i,-5,0.8
Nc1nc(N)nc(C2C=CCCC2)n1 (centres undefined),0.65,2,8,-0.1,-3.4,·,2.6,i,·,·
CCCCOC(=O)CSC1=C(C#N)C(c2ccccc2OC)C(C#N)C(=O)N1 (centres undefined),0.73,·,·,·,·,-9,2.6,·,-6,-0.8
O=C(Nc1cnn(C23CC4CC(CC(C4)C2)C3)c1)c1cnn2c(C(F)(F)F)cc(-c3ccco3)nc12,0.72,29,7,3.2,15,20,4.1,i,-6,-0.2
CNc1ccc(C(=O)c2ccccc2C(=O)O)cc1[N+](=O)[O-],0.65,13,3,5.5,-0.2,-1,6.5,i,-3,-0.8
Cc1ccccc1C(=O)Nc1ccc2c(C#N)c3nc4ccccc4nc3n2c1,0.75,·,·,·,·,-4,0.8,·,10,0.0
COc1ccc2c(c1)OC[C@H]1[C@H]2N2C(=O)c3cc(OC)c(OC)cc3NC(=O)[C@@]2(C)[C@H]1c1ccccc1,·,12,3,1.0,7.6,12,·,i,·,-0.7
COc1ccc(NC(=O)C23CCC(C)(C(=O)O2)C3(C)C)cc1 (centres undefined),0.68,10,7,1.6,·,3,0.9,·,-1,0.0
CCN(CC)S(=O)(=O)c1ccc(C(=O)OCCN2C(=O)c3cccc4c(N5CCOCC5)ccc(c34)C2=O)cc1,0.75,·,·,·,·,-19,-11,·,-2,0.5
CC(C)(C)OC(=O)N1CCN(c2ccc(NC(=O)c3ccco3)cc2)CC1,0.68,-19,-17,0.2,0.8,·,7.2,i,12,·
CN(C)c1ccc(/C=C(/C#N)C(=O)Nc2nc3c(s2)CCN(Cc2ccccc2)C3)cc1,0.71,37,2,42,-1.1,·,6.5,i,·,·
Cc1nnc(SCC(=O)N2CCN(S(=O)(=O)c3ccccc3)CC2)n1Cc1ccccc1,0.69,·,·,·,·,-2,3.1,·,-5,0.0
Cc1ccc(NC(=O)CSc2nc3[nH]c(=O)cc(O)c3s2)c(Br)c1,0.72,1,15,13,-14,8,1.7,i,·,-0.3
CCn1cc(Cl)c(C(=O)Nc2nccs2)n1,0.66,4,7,-0.8,-1.8,·,6.0,·,4,·
O=C(C(c1ccccc1)c1ccccc1)N1CCN(Cc2ccncc2)CC1,0.72,·,·,·,·,-3,1.2,·,0,0.2
COc1ccc(C(=O)Nc2ccc(C(=O)NCCc3ccc(OC)c(OC)c3)cc2)cc1,0.69,20,10,0.6,-1.5,9,4.9,i,1,-1.1
CCOc1ccccc1N1C(=O)c2ccc(C(=O)O)cc2C1=O,0.75,·,·,·,·,-4,1.8,·,-16,0.1
Cc1c(Cl)cn2c(=O)cc(CN3CCN(c4ccc(F)cc4)CC3)nc2c1Cl,0.65,·,·,·,·,1,0.6,·,10,-0.2
O=C(CNC(=S)NC(=O)c1ccccc1)c1ccccc1,0.67,·,·,·,·,0,3.2,·,4,-0.3
Cc1ccn2c(=O)nc(SCC(=O)NC3CCCC3)nc2c1,0.64,11,5,7.5,-1.5,-2,-2.9,i,-13,0.9
CC(=O)Nc1cccc(NC(=O)Nc2cccc3ccccc23)c1,0.7,3,-7,-2.4,0.4,-2,1.3,i,11,1.6
CC(=O)Nc1ccc(NC(=O)CSc2nc3c(=O)n(C)c(=O)n(C)c3n2C)cc1,0.69,5,8,0.1,-2.0,·,0.1,·,-1,·
CCCCCn1c(CN2CCN(C(=O)OCC)CC2)nc2c1c(=O)[nH]c(=O)n2C,0.68,·,·,·,·,4,1.3,·,21,0.5
COc1ccc(S(=O)(=O)N2CCCCC2)cc1NC(=O)C1CC(=O)N(Cc2ccccc2)C1 (centres undefined),0.67,-2,0,-2.4,2.9,-10,3.3,i,·,2.6
COc1cccc(S(=O)(=O)Nc2cccc(C(=O)N3CCOCC3)c2)c1,0.7,·,·,·,·,-8,3.6,·,-14,0.1
NC(=O)C1CCCN(C(=O)c2ccc(Cl)c(S(=O)(=O)N3CCc4ccccc43)c2)C1 (centres undefined),0.63,-3,-5,-0.8,-9.8,·,3.1,i,·,·
COc1ccc(CCNC(=O)c2ccc(=O)[nH]c2)cc1,0.66,10,11,1.0,-2.9,-1,2.1,i,-15,1.3
CCOC(=O)c1ccc(N2C(=O)CC(N3CCCC(C)C3)C2=O)cc1 (centres undefined),0.65,3,0,-3.6,-12,1,1.3,i,·,0.0
COc1ccc(Cn2nnc3c(=O)[nH]c(C4CCN(C(=O)c5ccccc5Cl)CC4)nc32)cc1,0.67,·,·,·,·,3,36*,·,-5,0.7
O=C(N/N=C/c1ccc(N2CCCCC2)o1)c1ccccc1,·,40,10,-1.6,5.1,-2,·,i,·,0.1
CC(=O)N1CCN(Cc2cc(=O)n3cc(Cl)c(C)c(Cl)c3n2)CC1,0.69,·,·,·,·,-10,1.2,·,-5,-0.4
NC(N)=Nc1nc2ccc(Cl)cc2c(=O)[nH]1,0.63,7,9,1.0,0.4,·,-38,i,-7,0.8
Cc1cccc(C)c1NC(=O)C1CCCN1C(=O)NCc1ccccc1 (centres undefined),0.69,4,1,-2.1,-1.0,·,0.4,i,-9,-0.9
COC1(c2ccccc2)NC(=S)NN=C1c1ccccc1 (centres undefined),0.77,·,·,·,·,-8,3.8,·,-27,1.4
CCOC(=O)CSC1=C(C#N)C(c2ccc(C)cc2)C(C(=O)OC)C(=O)N1 (centres undefined),0.73,·,·,·,·,8,0.6,·,-4,-0.4
COc1ccc(C(=O)Nc2ccc(NC(C)=O)cc2)cc1S(=O)(=O)N1CCCCC1C (centres undefined),0.66,·,·,·,·,-4,4.0,·,·,3.2
N#CCSc1nn(-c2ccc(F)cc2)c(=S)s1,0.72,-34*,-21*,-5.6*,-0.1,-4,3.8,i,-13,0.0
Cc1ccc(S(=O)(=O)N2CCCC2)s1,0.73,2,3,0.5,-1.6,-2,0.9,i,-6,-0.7
CCOc1cccc(NC(=O)C2CC(=O)N(C)C(=Nc3ccccc3)S2)c1 (centres undefined),0.68,·,·,·,·,33,6.3,·,-3,0.7
Cn1c(-c2ccc3c(c2)OCO3)cnc1NCc1ccccc1Cl,0.7,4,-1,-0.4,14,-4,1.9,i,1,-1.0
O=C(Nc1ccccn1)c1ccc(Cl)s1,0.66,5,3,-2.5,-0.5,-8,3.2,i,-4,-4.9
CCCNC(=O)c1cc2c3ccccc3n(C)c2s1,0.64,·,·,·,·,0,-3.2,·,4,0.6
O=C(c1cc(-c2ccccc2)on1)N1CCN(C(=O)c2ccco2)CC1,0.7,-12,-5,1.2,0.8,-9,2.6,i,-19,0.6
CC1(C)CC(=O)C2=C(C1)N(Cc1ccccc1)C(=O)C2(O)C(F)(F)F (centres undefined),0.69,·,·,·,·,-23,2.1,·,17,0.6
